High-throughput results deposited in PubChem by several laboratories.
RGS16-Gao: modulators of RGS16 binding to Galphao, primary screen, biochemical, human proteins, multiplexed bead flow cytometry. Regulator of G-protein signaling 16 (Homo sapiens) + Guanine nucleotide-binding protein …. bead-based flow cytometry RGS16-Galphao binding, fluorescence; actives lie on both sides. binding response (% of control), % at 10 µM. 220,000 tested, 0.38% active;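 active = below 25% or above 175%, edge rows of some plates excepted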;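 also: Galphao activated by GDP with aluminum fluoride before binding; 100% = wells without compound and 0% = beads without RGS; some results beyond the cut were filed as inactive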
PKD1 inh: inhibitors of human PKD1 kinase, biochemical, fluorescence polarization | Serine/threonine-protein kinase D1 (Homo sapiens), Q15139 | PKD1 kinase fluorescence polarization assay | inhibition, %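 (about 10 µM by stock and volumes)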 | 200,000 tested, 0.056% active;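 active = inhibition of 50% or more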;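 also: controls were vehicle for no effect and a reference inhibitor for full effect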
Target sequence (Q15139 whole entry, looked up): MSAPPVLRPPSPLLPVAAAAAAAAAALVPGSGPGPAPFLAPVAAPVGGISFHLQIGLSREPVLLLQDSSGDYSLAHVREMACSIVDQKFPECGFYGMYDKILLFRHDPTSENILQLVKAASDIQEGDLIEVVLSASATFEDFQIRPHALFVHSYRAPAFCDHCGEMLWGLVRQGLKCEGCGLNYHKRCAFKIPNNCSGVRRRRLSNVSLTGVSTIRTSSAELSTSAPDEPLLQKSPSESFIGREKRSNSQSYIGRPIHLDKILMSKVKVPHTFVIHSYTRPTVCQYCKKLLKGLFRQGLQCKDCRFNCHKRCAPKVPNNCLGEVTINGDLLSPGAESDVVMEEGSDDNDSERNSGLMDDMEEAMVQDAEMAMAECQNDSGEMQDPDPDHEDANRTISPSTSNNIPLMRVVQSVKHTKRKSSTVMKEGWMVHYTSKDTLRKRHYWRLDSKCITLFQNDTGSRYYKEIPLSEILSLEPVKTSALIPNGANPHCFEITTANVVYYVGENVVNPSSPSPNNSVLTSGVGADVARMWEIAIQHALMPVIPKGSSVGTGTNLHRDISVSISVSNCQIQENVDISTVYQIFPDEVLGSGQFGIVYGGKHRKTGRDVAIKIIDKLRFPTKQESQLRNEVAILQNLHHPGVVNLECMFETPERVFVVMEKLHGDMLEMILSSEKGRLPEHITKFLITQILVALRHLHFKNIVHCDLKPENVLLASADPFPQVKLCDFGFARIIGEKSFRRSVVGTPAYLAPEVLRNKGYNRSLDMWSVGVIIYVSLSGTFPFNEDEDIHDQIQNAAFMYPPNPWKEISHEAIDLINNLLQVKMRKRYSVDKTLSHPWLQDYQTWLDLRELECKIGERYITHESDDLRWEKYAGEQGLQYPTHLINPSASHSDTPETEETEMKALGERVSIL
INS promoter inh: inhibitors of insulin promoter-driven GFP, primary screen, imaging, TRM-6 cells (human fetal islet line), eGFP reporter, cell count; reporter expression induced with tamoxifen; AID 1273, 2008; 130,000 tested, 0.9% active; inhibition, % at 2 µM;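 active = inhibition above the mean plus 3 SD, with well images judged a real hit on visual review, cut at about 60% in these data, passing the limit was not always enough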
HSV replic up: enhancers of HSV replication in host cells, fold increase, host cell viability | HSV replication augmentation in cells | maximum fold increase | 220,000 tested, 0.005% active;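 active = peak rise of 1.5-fold or more in the series; tested in PC3 cells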;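 also: first round at 10 µM; read as green reporter fluorescence; hits show the peak of a series up to 25 µM; 1 = signal of infected wells without compound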
GALR2 ag: GALR2 receptor agonists, primary screen, cell-based. Galanin receptor type 2 (Homo sapiens), O43603. GALR2-expressing cells, agonist activation read-out. activation, %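 (tested at 5 µM)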. 140,000 tested, 0.48% active. AID 803, 2007;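 active = above mean plus 3 SD of all compounds, about 5% in these data, not always enough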;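 also: 0% = vehicle buffer wells and 100% = reference agonist at full effect; tested in CHO reporter cells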
INS promoter inh cell count: second read-out of INS promoter inh, no call of its own (marks repeat the call); normalized cell count, %; measured here: cell count, toxicity; reference of the scale not given here;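 cells exposed to compound for 48 h; stained nuclei by imaging scaled within each plate; lower means fewer cells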
HSV replic up primary fold: second read-out of HSV replic up, no call of its own (marks repeat the call); fold increase; compound at 10 µM; measured here: primary screen fold increase 10 uM; tested in PC3 cells;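 GFP signal in the first replicate; 1 = infected wells without compound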
An asterisk follows results filed as active; i = inactive; . = no result given.

Every second line gives: PKD1 inh | GALR2 ag | RGS16-Gao | INS promoter inh cell count | INS promoter inh | HSV replic up primary fold | HSV replic up
> CCn1nnnc1-c1ccc(OC)c(S(=O)(=O)Nc2ccc(S(N)(=O)=O)cc2)c1
 : 1 | . | 106 | 130 | 7 | 0.99 | i
> CCOC(=O)C1=C(C)OC(N)=C(C#N)C1c1ccc(OC)c(CSc2ccccn2)c1 (stereo unspecified)
 : 2 | -0.4 | 100 | . | . | 0.89 | i
> O=C1CCCCCN1C(=O)c1ccc(C(=O)N2CCCCCC2=O)cc1
 : 1 | -0.6 | 104 | 88 | 19 | 0.92 | i
> CC(C)n1c(C(=O)OCC(=O)NCc2ccc3c(c2)OCO3)cc2sccc21
 : -7 | -2.4 | 100 | 114 | -23 | 0.6 | i
> CC(=O)Nc1cccc(/C(C)=N/NC(=O)c2cccs2)c1
 : 3 | -0.1 | 98 | 101 | 21 | 0.91 | i
> COCCCNCCCCOc1c(Cl)cc(C)cc1Br
 : -16 | -2.6 | 107 | 62 | -16 | 0.73 | i
> Cc1ccc(-n2c(=O)c3sccc3n(CC(=O)NCc3ccco3)c2=O)cc1
 : -6 | -2.1 | 103 | 30 | 1 | 0.91 | i
> NS(=O)(=O)c1cc(C(=O)N2CCc3ccccc32)c(Cl)cc1Cl
 : 2 | -1.4 | 102 | 119 | -25 | 1 | i
> CC(C)(C)c1ccc(OCc2ccc(C(=O)NCc3cccnc3)o2)cc1
 : 1 | . | 99 | . | . | 0.81 | i
> CC1=NN(c2ccc(Cl)cc2)C(=O)C1C(c1ccccc1O)c1c(C)[nH]n(-c2ccc(Cl)cc2)c1=O (stereo unspecified)
 : -2 | -1.6 | 139 | 103 | 41 | 1 | i
> O=C(NCc1ccco1)c1csc2c1CCCC2
 : 2 | . | 98 | . | . | 1 | i
> COc1ccc(CN2CCCCC2C)c(C)c1C (stereo unspecified)
 : -10 | 0.8 | 93 | 164 | 36 | 0.9 | i
> O=C(COC(=O)c1cccc(NC(=O)c2ccco2)c1)c1ccc(Br)cc1
 : 4 | -1.3 | 102 | . | . | 0.86 | i
> O=S(=O)(NCCc1csc(-c2ccc(C(F)(F)F)cc2)n1)c1ccc2c(c1)OCCO2
 : -4 | -1.6 | 104 | . | . | 0.95 | i
> CCOCCCN(C(=O)c1ccco1)C(C(=O)NC1CCCC1)c1cccc(OC)c1OC (stereo unspecified)
 : -6 | -1.4 | 115 | . | . | 1.1 | i
> C/C(=N/NC(=O)c1cc(-c2cccc([N+](=O)[O-])c2)n[nH]1)c1ccc(Cl)cc1
 : -5 | -1.6 | 97 | . | . | 1.1 | i
> NC(N)=N/N=C/c1cc([N+](=O)[O-])ccc1O
 : 4 | -1.5 | 223 | 98 | 30 | 1.1 | i
> Cn1cnnc1SCC(=O)c1c[nH]c2ccccc12
 : -4 | -0.7 | 109 | 91 | -27 | 1 | i
> Cc1ccc(C2=NN(CCC(=O)NCCC(C)C)C(=O)CC2)cc1
 : -16 | -0.2 | 81 | 87 | -22 | 1 | i
> Cc1ccc(S(=O)(=O)CC(C)N2CCN(C3CCCCC3)CC2)cc1 (stereo unspecified)
 : -2 | -3.4 | 161 | 75 | -103 | 0.78 | i

Some of these compounds in order of their number in GALR2 ag, lowest first:
Molecule,GALR2 ag
Cc1ccc(-n2c(=O)c3sccc3n(CC(=O)NCc3ccco3)c2=O)cc1,-2.1
NC(N)=N/N=C/c1cc([N+](=O)[O-])ccc1O,-1.5
Cn1cnnc1SCC(=O)c1c[nH]c2ccccc12,-0.7

The results go on.
Every second line gives: PKD1 inh | GALR2 ag | RGS16-Gao | INS promoter inh cell count | INS promoter inh | HSV replic up primary fold | HSV replic up
> CCOC(=O)c1cc2c(=O)n3cccc(C)c3nc2n(CC2CCCO2)c1=NC(C)=O (stereo unspecified)
 : -1 | 2.0 | . | 105 | -11 | 0.94 | i
> COc1ccc(-c2nn3c(-c4ccc(F)cc4)nnc3s2)cc1
 : -4 | -0.8 | 137 | . | . | 0.86 | i
> Cc1ccc2nc(SCc3nc4cc(Cl)ccc4c(=O)[nH]3)[nH]c2c1
 : -1 | . | 100 | . | . | 0.95 | i
> COc1cc(NC(=O)c2csc(N)n2)cc(C(=O)Nc2cccc(C(F)(F)F)c2)c1
 : . | . | 105 | . | . | 0.51 | i
> COc1cccc(N/C(C)=C/C(=O)c2ccc(Br)cc2)c1
 : -6 | -1.4 | 100 | 122 | 25 | 0.97 | i
> O=C(CSCc1ccc(Br)cc1)N1CCOCC1
 : -7 | -2.0 | 61 | 141 | -13 | 0.7 | i
> Cc1nnsc1C(=O)NNS(=O)(=O)c1ccccc1
 : -4 | -2.7 | 99 | 161 | 9 | 0.86 | i
> CCN(CC)S(=O)(=O)c1cc(NC(=O)C(C)Nc2ccccc2N2CCOCC2)ccc1C (stereo unspecified)
 : 0 | . | 103 | . | . | 1 | i
> COc1ccc(OCCC(=O)OCC(=O)c2ccc[nH]2)cc1
 : 11 | . | 103 | . | . | 1.1 | i
> Cn1c(=O)c2c(nc(Oc3ccc(-c4ccccc4)cc3)n2C)n(C)c1=O
 : 0 | -0.3 | 100 | 70 | -12 | 0.88 | i
> COCCCN1C(=O)C(=O)/C(=C(/O)c2ccccc2)C1c1ccc(N(C)C)cc1 (stereo unspecified)
 : -11 | -1.2 | 81 | . | . | 1 | i
> CN(C(=O)COC(=O)c1ccc2ccccc2n1)C1CCS(=O)(=O)C1 (stereo unspecified)
 : -2 | . | 107 | . | . | 1 | i
> CCc1ccc(N2CN(Cc3cccnc3)CNC2=S)cc1
 : . | . | 96 | . | . | 1 | i
> COc1ccccc1NC(=O)c1ccccc1S(=O)(=O)c1ccccc1[N+](=O)[O-]
 : -3 | . | 103 | . | . | 0.89 | i
> COc1ccc2cc(C(=O)C3CCCN(C(=O)Cc4c(C)noc4C)C3)ccc2c1 (stereo unspecified)
 : -5 | . | 100 | . | . | 0.83 | i
> CC1CCCCC1NC(=O)/C=C/c1nc2ccccc2s1 (stereo unspecified)
 : -10 | . | 107 | 31 | 50 | . | .
> COc1ccc(C(=O)N2CCOC2CNC(=O)C(=O)NCc2ccc(Cl)cc2)cc1 (stereo unspecified)
 : -5 | . | 112 | 99 | -178 | 0.95 | i
> O=C1C(=O)N(CCCn2ccnc2)C(c2cccnc2)/C1=C(/O)c1ccccc1 (stereo unspecified)
 : 6 | -0.2 | . | 62 | -364 | . | .
> O=C(Nc1cccn2ncnc12)c1ccccc1
 : -6 | -1.3 | 102 | 111 | -17 | 0.96 | i
> CC(C)(C)c1cc(CN2CCCCC2)cc(C(C)(C)C)c1O
 : -4 | -3.8 | 105 | 126 | 54 | 1 | i
> Cc1c(C)[n+](=O)c(-c2ccc(Br)cc2)c(C)n1[O-]
 : . | . | 96 | . | . | 0.95 | i
> Cc1nn(C(=O)c2cccnc2)c(C)c1Sc1ccc(Br)cc1
 : 5 | -1.7 | 104 | 125 | 30 | 1 | i
> N#CCCn1c(SCC(=O)NCc2ccco2)nc2ccccc21
 : -5 | -1.4 | 96 | 99 | -7 | 0.95 | i
> CCOC(=O)c1[nH]c(=O)[nH]c1CN(Cc1ccco1)Cc1[nH]c(=O)[nH]c1C(=O)OCC
 : -5 | . | 104 | . | . | 1 | i
> CC(NC(=O)c1ccco1)C(=O)Nc1nc(-c2ccccn2)cs1 (stereo unspecified)
 : 9 | -3.0 | 101 | 147 | 23 | 0.93 | i
> O=C(CSc1nnc2scc(-c3ccccc3)n12)NCC1CCCO1 (stereo unspecified)
 : -1 | -2.5 | 100 | 116 | -38 | 1.1 | i
> Cc1ccccc1C(=O)Nc1nc2c(C)csc2c(=O)s1
 : . | . | 93 | . | . | 0.94 | i
> OCC(Cc1ccccc1)NCc1ccccc1C(F)(F)F (stereo unspecified)
 : -3 | -0.3 | 92 | 93 | -14 | 1 | i
> O=C(COc1ccc(-c2ccccc2)cc1)NN=C1CCCC1
 : -6 | . | 106 | . | . | 1.1 | i
> CCOC(=O)C1=C(C)N(C)C(C)=C(C(=O)OCC)C1c1ccccc1
 : 1 | -1.1 | 99 | 55 | -477 | 0.97 | i
> O=S(=O)(NCCc1ccccn1)c1ccc(F)c(F)c1
 : -4 | -1.2 | 101 | . | . | . | .
> COc1cc([N+](=O)[O-])c(OC)cc1SCc1n[nH]c(=S)n1-c1ccc(F)cc1
 : . | . | 98 | . | . | 0.95 | i
> Cc1cc(CNC(=O)CCc2nnc(CCCCc3ccccc3)o2)nn1C
 : -5 | . | 99 | . | . | 0.97 | i
> Cc1ccccc1OCC(=O)N/N=C/c1ccc2c(c1)OCCO2
 : 0 | -0.1 | 120 | . | . | 0.91 | i
> CC(C)c1nc2ccc(NC(=O)C3CCCCC3)cc2[nH]1
 : -4 | -1.4 | 103 | 77 | -40 | 0.9 | i
> O=C(OCc1nc2ccccc2s1)c1ccc(Br)o1
 : -4 | . | 99 | . | . | 1.1 | i
> CCOC(=O)c1ccc(C(=O)OCC)c(NC(=S)Nc2ccc([N+](=O)[O-])cc2OC)c1
 : -15 | 0.1 | 93 | . | . | 1.1 | i
> CCOC(=O)/C(N=Nc1c(C)n(C)n(-c2ccccc2)c1=O)=C(\C)O
 : 2 | -0.6 | 102 | . | . | 1.1 | i
> CN(c1ccccc1)S(=O)(=O)c1ccc(NC(=O)c2cccs2)cc1
 : 4 | . | 100 | . | . | 1.1 | i
> COc1nc(OC)nc(N2CCC(C(=O)NCc3cccs3)CC2)n1
 : -8 | -0.3 | 96 | 76 | -5 | 0.8 | i
> CCOc1cc(C2NC(=O)NC(c3ccccc3)=C2C(C)=O)ccc1OCC(N)=O (stereo unspecified)
 : 1 | -1.0 | 100 | 50 | -28 | . | .
> CCCCCn1c(SCCc2ccccc2)nc2c1c(=O)[nH]c(=O)n2C
 : -4 | 0.1 | 103 | 72 | 40 | 0.9 | i
> CN(C)C=NC(=O)c1cc(C(=O)c2ccc(C(C)(C)C)cc2)c[nH]1
 : -6 | . | 100 | 115 | 0 | 0.97 | i
> COc1ccc(S(=O)(=O)N2CCOCC2)cc1NC(=O)CO/N=C/c1ccccc1OC(F)F
 : -3 | -1.6 | 105 | 99 | 31 | 1.1 | i
> O=[N+]([O-])c1ccc(OCc2cn([C@@H](CO)c3ccccc3)nn2)c(Br)c1
 : . | . | 97 | . | . | 0.97 | i
> CC(=O)c1sc(Nc2nc3ccc(F)cc3s2)nc1C
 : -3 | 7.0 | 99 | . | . | 0.94 | i
> O=C(CSc1nc2ccccc2c(=O)n1Cc1ccc(F)cc1)NCc1cccs1
 : 9 | 0.0 | 109 | 94 | -19 | 0.73 | i
> C=C(C)C(=O)Nc1ccc2c(c1)OCCOCCOCCO2
 : . | . | 95 | . | . | 1.1 | i
> CC(C)OC(=O)CSc1nnc(-c2ccc(Cl)cc2Cl)o1
 : 21 | -3.5 | 59 | 78 | 62 | 0.94 | i
> Cc1ccc(-c2csc3nc4c5ccccc5c(NCCCN(C)C)nn4c(=O)c23)cc1
 : -6 | . | 110 | 87 | -60 | 0.6 | i
> Cc1[nH]n(-c2ccc([N+](=O)[O-])cc2)c(=O)c1C=NCC1CCCO1 (stereo unspecified)
 : -5 | . | 105 | . | . | 0.87 | i
> CCc1ccc(C(=O)COC(=O)C(Cc2ccccc2)NC(=O)c2ccc(Cl)cc2)cc1 (stereo unspecified)
 : -6 | -1.8 | 97 | 29 | -69 | 1 | i
> Cc1cccc(NC(=O)Nc2ccc3c(c2)N(C)C(=O)CS3)n1
 : -7 | -1.3 | 122 | . | . | 1.1 | i
> O=C(O)COc1ccc2c(c1)O/C(=C\c1cccs1)C2=O
 : . | . | 106 | . | . | 1.2 | i
> CCCCNC(=O)CCC(=O)Nc1ncc(-c2ccc(C)cc2)n1C
 : -2 | -1.4 | 100 | . | . | 0.89 | i
> O=C(CSc1ccc2nnc(-c3ccc(Cl)cc3)n2n1)N1CCc2ccccc21
 : 2 | -0.1 | 83 | . | . | . | .
> CC(C)=C1C2C=CC1C1C(=O)N(c3ccc4c(c3)OCO4)C(=O)C21 (stereo unspecified)
 : -2 | -2.5 | 98 | 84 | -52 | 0.99 | i

Two of the compounds above, with bars between the fields.
canonical_smiles | PKD1 inh | GALR2 ag | RGS16-Gao | INS promoter inh cell count | INS promoter inh | HSV replic up primary fold | HSV replic up
CC(C)OC(=O)CSc1nnc(-c2ccc(Cl)cc2Cl)o1 | 21 | -3.5 | 59 | 78 | 62 | 0.94 | i
C=C(C)C(=O)Nc1ccc2c(c1)OCCOCCOCCO2 | . | . | 95 | . | . | 1.1 | i
